Screens deposited in PubChem BioAssay by Johns Hopkins Ion Channel Center.
KCNQ2 pot: potentiators of rat KCNQ2 potassium channel; Potassium voltage-gated channel subfamily KQT member 2 (Rattus norvegicus), O88943; CHO-K1 KCNQ2, FluxOR thallium flux fluorescence; hits give high values; B-score at 10 µM; 310,000 tested, 0.54% active; AID 2239, 2010;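 active = fluorescence ratio B-score at least 3 SD of library B-scores, with initial fluorescence B-score within 3 SD, cut at about 5.3 in these data; same plate scores as AID 2156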;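 also: B-score of peak minus minimum over baseline fluorescence ratio after K+ and Tl+ stimulus; positive B-score means potentiation of KCNQ2 with more thallium influx and brighter signal; only the inactives scoring about 0 or higher are listed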
Target sequence (O88943 whole entry, looked up): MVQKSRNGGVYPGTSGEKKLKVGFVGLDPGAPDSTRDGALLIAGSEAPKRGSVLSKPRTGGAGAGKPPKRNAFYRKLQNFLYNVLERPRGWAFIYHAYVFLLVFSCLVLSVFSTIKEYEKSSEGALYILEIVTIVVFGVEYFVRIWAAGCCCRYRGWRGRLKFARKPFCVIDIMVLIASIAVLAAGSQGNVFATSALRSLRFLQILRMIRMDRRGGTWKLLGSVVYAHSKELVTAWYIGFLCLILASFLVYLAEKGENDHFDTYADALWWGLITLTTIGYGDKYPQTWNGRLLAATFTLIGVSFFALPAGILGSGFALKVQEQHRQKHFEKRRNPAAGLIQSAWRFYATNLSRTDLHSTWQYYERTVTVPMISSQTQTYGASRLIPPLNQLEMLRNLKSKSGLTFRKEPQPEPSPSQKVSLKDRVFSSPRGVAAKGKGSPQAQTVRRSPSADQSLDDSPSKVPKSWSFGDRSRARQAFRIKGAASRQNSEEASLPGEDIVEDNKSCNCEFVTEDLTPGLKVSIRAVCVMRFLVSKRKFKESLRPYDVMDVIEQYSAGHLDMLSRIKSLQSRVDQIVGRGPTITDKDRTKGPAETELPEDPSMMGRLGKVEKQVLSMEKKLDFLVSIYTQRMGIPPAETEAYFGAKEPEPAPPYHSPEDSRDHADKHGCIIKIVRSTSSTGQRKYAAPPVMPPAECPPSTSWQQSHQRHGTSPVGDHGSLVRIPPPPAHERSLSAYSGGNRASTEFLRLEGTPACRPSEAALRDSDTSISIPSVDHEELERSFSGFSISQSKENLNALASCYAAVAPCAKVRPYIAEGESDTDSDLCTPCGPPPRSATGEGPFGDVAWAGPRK
KCNQ2 pot baseline: second read-out of KCNQ2 pot, no call of its own (marks repeat the call); B-score; compound at 10 µM; measured here: initial fluorescence intensity artifact check;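 brightness before thallium and not channel activity; 0 = typical well and far values either way flag optical interference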
An asterisk follows results filed as active. Some of the compounds tested; rates above refer to the full screens.

Start of the listing, in advance, 13 compounds:
SMILES | KCNQ2 pot | KCNQ2 pot baseline
CCOc1cc(NC(=O)C2CC2)c(OCC)cc1NC(=O)CCn1nnc2ccccc21 | 1.48 | -3.45
COc1cccc(C(=O)OC2CCN(C)CC2)c1 | 0.5 | 0.01
Cc1cc(C)c[n+](-c2[nH]c(=O)sc2/C=N/N=C(\N)[S-])c1 | 0.25 | 1.07
Cc1cccc(NC(=O)C2CC(O)CN2C(=O)Oc2ccccc2)c1 (configuration not stated) | 0.47 | 1.02
Cc1ccc(C(=O)NN2CC(O)=C(c3nc(-c4cccc([N+](=O)[O-])c4)cs3)C2=N)cc1 | 0.07 | 0.9
CC1Sc2ccc(S(=O)(=O)CCC(=O)N(C)Cc3ccco3)cc2NC1=O (configuration not stated) | 1.19 | 1.15
C/C(N)=C(/C#N)C(=O)COC(=O)c1cccc(O)c1 | 0.58 | 0.47
CCOc1cc(C2C3=C(CC(C)(C)CC3=O)N(CCCOC)C3=C2C(=O)CC(C)(C)C3)ccc1O | 0.03 | 0.92
CC(C)CNS(=O)(=O)c1cc2c3c(c1)CCC(=O)N3CCC2 | 0.94 | -0.28
CCOc1ccc(NC(=O)CN2C(=O)CSc3ccc(S(=O)(=O)N4CCOCC4)cc32)cc1 | 0.12 | -2.28
CC1CCN(S(=O)(=O)c2ccc3ncn(CC(=O)N4CCN(C)CC4)c(=O)c3c2)CC1 | 1.76 | 0.72
C/C(=N\NC(=O)c1ccn(C)n1)c1ccc(NC(=O)C2CCC2)cc1 | 2.12 | 0.04
Brc1ccc(-c2nnc3sc(CN4CCC5(CC4)OCCO5)cn23)cc1 | 0.07 | 0.03

The whole of this part, from the start:
SMILES | KCNQ2 pot | KCNQ2 pot baseline
CCOc1cc(NC(=O)C2CC2)c(OCC)cc1NC(=O)CCn1nnc2ccccc21 | 1.48 | -3.45
COc1cccc(C(=O)OC2CCN(C)CC2)c1 | 0.5 | 0.01
Cc1cc(C)c[n+](-c2[nH]c(=O)sc2/C=N/N=C(\N)[S-])c1 | 0.25 | 1.07
Cc1cccc(NC(=O)C2CC(O)CN2C(=O)Oc2ccccc2)c1 (configuration not stated) | 0.47 | 1.02
Cc1ccc(C(=O)NN2CC(O)=C(c3nc(-c4cccc([N+](=O)[O-])c4)cs3)C2=N)cc1 | 0.07 | 0.9
CC1Sc2ccc(S(=O)(=O)CCC(=O)N(C)Cc3ccco3)cc2NC1=O (configuration not stated) | 1.19 | 1.15
C/C(N)=C(/C#N)C(=O)COC(=O)c1cccc(O)c1 | 0.58 | 0.47
CCOc1cc(C2C3=C(CC(C)(C)CC3=O)N(CCCOC)C3=C2C(=O)CC(C)(C)C3)ccc1O | 0.03 | 0.92
CC(C)CNS(=O)(=O)c1cc2c3c(c1)CCC(=O)N3CCC2 | 0.94 | -0.28
CCOc1ccc(NC(=O)CN2C(=O)CSc3ccc(S(=O)(=O)N4CCOCC4)cc32)cc1 | 0.12 | -2.28
CC1CCN(S(=O)(=O)c2ccc3ncn(CC(=O)N4CCN(C)CC4)c(=O)c3c2)CC1 | 1.76 | 0.72
C/C(=N\NC(=O)c1ccn(C)n1)c1ccc(NC(=O)C2CCC2)cc1 | 2.12 | 0.04
Brc1ccc(-c2nnc3sc(CN4CCC5(CC4)OCCO5)cn23)cc1 | 0.07 | 0.03
Cc1cccc(C(C(=O)NC2CCCCC2)N(Cc2cccnc2)C(=O)c2csnn2)c1 (configuration not stated) | 0.01 | 0.47
COc1ccc(N2CC(O)=C(c3n(C)c4ccccc4[n+]3C)C2=N)cc1 | 0.05 | -0.62
NNC(=O)CN1C(CN2CCOCC2)=Nc2ccc(Br)cc2C1c1ccccc1 (configuration not stated) | 1.04 | -1.18
O=C(C1CCC1)N1CCN(S(=O)(=O)c2ccc(F)cc2)CC1 | 1.43 | -0.95
CN1CCN2c3ccccc3Cc3ccccc3C2C1 (configuration not stated) | 0.4 | 1.02
COCCn1c(=NC(=O)/C=C/c2ccccc2)sc2cc(NC(C)=O)ccc21 | 0.35 | 0.01
O=[N+]([O-])c1ccc(-c2nc(NCc3ccccc3)c3ccccc3n2)cc1 | 0.93 | 0.66
COc1ccc(-c2cc(C(F)(F)F)nc(SCC(=O)NCCN3CCOCC3)n2)cc1OC | 1.12 | 0.25
Cc1ccc(C2OC3=C(C(=O)CC(C)(C)C3)C(N)=C2C#N)o1 (configuration not stated) | 5.32* | 1.53*
COC(=O)c1[nH]c2cc(OC)ccc2c1NC(=O)CCN1CCN(c2cccc(C)c2C)CC1 | 0.56 | -2.64
COc1ccc(-c2cn3c(C)c(C(=O)NC(C)C)sc3n2)cc1 | 0.01 | 0
CCOC(=O)c1ccc(NC(=S)N2CCSC2c2ccc(Br)cc2)cc1 (configuration not stated) | 0.43 | -1.5
COc1ccc(NC(=S)NC(NC(=O)CCl)C(Cl)(Cl)Cl)c([N+](=O)[O-])c1 (configuration not stated) | 0.68 | -0.69
COc1ccc(Nc2nc(N3CCN(C)CC3)nc3ccccc23)c(OC)c1 | 2.83 | -0.21
Cc1ccc(/C=C/C2=NN(C)C(=O)CC2)cc1 | 0.04 | 3.33
Cc1c(C)c(C)c(CO/N=C/c2cccs2)c(C)c1C | 3.06 | -0.1
CCn1c(SCC(=O)N2CCOCC2)nc2oc3c(Cl)cc(Cl)cc3c(=O)c2c1=O | 2.88 | -2.4
C=CCn1c(NC(=O)c2ccco2)nc2ccccc21 | 0.7 | -2.51
COc1cccc(-c2cc(-c3cccnc3)nc(N)c2C#N)c1 | 0.06 | 1.19
S=c1[nH]nc(-c2cc(-c3ccccc3)n[nH]2)n1/N=C/C=C/c1ccco1 | 1.34 | -2.44
COc1ccccc1NS(=O)(=O)c1ccc(C)c(NC(=O)c2ccc(S(=O)(=O)N3CCCCCC3)cc2)c1 | 0.23 | -0.23
CCCC(c1nnnn1Cc1ccc(OC)cc1)N1CCC(C(N)=O)CC1 (configuration not stated) | 0.59 | 1.19
COc1ccc(-n2cc(CN[C@H]3CCCCNC3=O)c(-c3cccc(F)c3)n2)cc1 | 0.13 | -0.04
CCn1cc(/C=N\NC(=O)c2cc(-c3ccccc3OC)nc3ccccc23)c(C)n1 | 1.02 | -2.05
COc1ccc(CCn2c(-c3cccc([N+](=O)[O-])c3)nc3nc4ccccc4nc32)cc1OC | 0.78 | -1.55
CCOC(=O)N1CCN(S(=O)(=O)c2ccc(F)c(C(=O)Nc3ccc(C)c(Cl)c3)c2)CC1 | 0.74 | 1.28
NCCOc1ccccc1-c1ccccc1 | 1.38 | 0.24
O=C1CNC(=O)/C1=C\c1ccc(O)cc1 | 2.6 | 0.12
O=C(COc1ccccc1)NC(=S)Nc1cccc(NC(=O)c2ccccc2Cl)c1 | 0.21 | -0.72
O=C(c1ccccc1)N(Cc1ccc(F)cc1)C1CCS(=O)(=O)C1 (configuration not stated) | 0.73 | 0.82
COc1ccc(CNC(=O)CCSCc2ccccc2Cl)c(OC)c1 | 0.53 | 0.01
CCN(CC)CC(=O)N1CCCC(N2CCN(c3cccc(C(F)(F)F)c3)CC2)C1 (configuration not stated) | 0.82 | 1.15
CCOC(=O)c1cccnc1NC(=O)c1ccncc1 | 2.18 | 0.09
O=C(Nc1cccc(S(=O)(=O)N2CCCC2)c1)c1cccc(OC(F)F)c1 | 1.14 | -0.21
CCCC(=O)N(c1ccc(OCC)cc1)C1C=CS(=O)(=O)C1 (configuration not stated) | 0.94 | -1.89
COCCNC(=O)C1CCN(S(=O)(=O)N2CCC3(CC2)OCCO3)CC1 | 0.09 | 0.6
COc1cccc(-c2nnc3n2N=C(c2cc(OC)ccc2OC)CS3)c1 | 0.12 | 0.36
O=S(=O)(Nc1ncccn1)c1ccc(F)cc1 | 0.67 | 0.12
O=C(COc1ccccc1[N+](=O)[O-])Nc1cc(Cl)ccc1C(=O)O | 0.04 | 1.06
CC(=O)N1CCC(O)(c2ccc3c(c2)OCO3)CC1 | 1.02 | -0.57
COC(=O)C(NC(=O)CCC(=O)NC(C(=O)OC)c1ccccc1)c1ccccc1 (configuration not stated) | 0.28 | 1.6
CC(C)Cn1cc(C(=O)NC2CCN(Cc3ccccc3)CC2)c2c3ccccc3n(C)c2c1=O | 0.22 | -1.38
C=CCNC(=O)c1onc(CSc2ccc(Cl)cc2)c1C(=O)O | 1.72 | -0.64
Cc1cccc(C(=O)NCC(=O)NC(C)c2ccc(-n3ccnc3)cc2)c1 (configuration not stated) | 0.18 | -0.14
COc1cccc(C(=O)Nc2cccc(NC(=O)c3ccccc3Cl)c2)c1 | 0.24 | -1.03
CCOC(=O)NC(NC(=S)Nc1ccccc1OC)C(Cl)(Cl)Cl (configuration not stated) | 0.06 | -0.37
S=C(NCCN1CCOCC1)Nc1ccc(Cl)cc1Cl | 1.83 | 1.75

(list continues)
SMILES | KCNQ2 pot | KCNQ2 pot baseline
C[n+]1ccccc1COc1ccc(C(C)(C)C)cc1 | 0.01 | 1.72
CCN(CC)C(=O)c1sc2c(c1C)c(=O)n(-c1ccc(OC)cc1OC)c(=O)n2CC(=O)c1ccccc1 | 0.27 | -0.08
c1csc(C2C3=C(Nc4ncnn42)c2ccccc2OC3)c1 (configuration not stated) | 1.85 | -0.31
O=C(CCNS(=O)(=O)c1ccccc1F)N1CCN(Cc2ccccc2)CC1 | 1.34 | -0.37
COc1ccccc1CNC(=O)C(=O)NCC(c1ccco1)N1CCOCC1 (configuration not stated) | 0.95 | 0.11
O=C(Nc1cccc([N+](=O)[O-])c1)C12CC3CC(C1)CC(n1cnc([N+](=O)[O-])n1)(C3)C2 | 1.09 | -1.22
COc1ccc(OC)c(S(=O)(=O)N2CCC3(CC2)OCCN3S(=O)(=O)c2cccs2)c1 | 0.88 | 0.01
CCCCn1c(N)c(NCC(C)C)c(=O)[nH]c1=O | 0.13 | -0.18
Nc1cccc2c1C(=O)N(CC(=O)NC13CC4CC(CC(C4)C1)C3)C2=O | 1.37 | -1.47
CC(=O)c1cccc(NC(=S)NC(=O)c2ccc(Br)cc2)c1 | 0.56 | 0.87
COc1ccccc1CN1CC(C(=O)NCc2ccc(C)c(F)c2)CCC1=O (configuration not stated) | 1.11 | -0.29
CCc1nnc(NC(=O)CSc2nc3ccc(OC)cc3[nH]2)s1 | 0.36 | 0.36
CC(=O)/C(N=Nc1ccc(-n2ccc(C(F)(F)F)n2)cc1)=C(\C)O | 0.78 | -1.86
Cn1cccc1/C=N/NC(=O)c1cccnc1 | 0.18 | -0.91
COC(=O)c1ccc2c(=O)n(NC(C)=O)c(=S)[nH]c2c1 | 0.21 | 0.06
O=[N+]([O-])c1c(NCCO)cc(N2CCN(Cc3ccc4c(c3)OCO4)CC2)c2nonc12 | 0.37 | -2.22
c1ccc(-c2cn(-c3ccccc3)c3ncnc(N4CCCCC4)c23)cc1 | 0.26 | 0.19
O=C(CN1C(=O)c2cccc3cccc(c23)C1=O)N1CCCCC1 | 1.15 | 0.07
COc1cccc(OC)c1OCCN1CCCC1 | 0.01 | -0.03
COc1ccc2c(C#N)c3ccccn3c2c1 | 0.46 | 0.5
CCN(CC)CCNc1nc(-n2nc(C)cc2C)nc2sc3c(c12)CC(C)(C)OC3 | 2.16 | -3.82
Cc1cc(S(=O)(=O)NCc2ccc(S(N)(=O)=O)cc2)c(C)s1 | 1.6 | -0.79
CC(=O)N1CCN(CC(=O)Nc2ccccc2C(=O)NCc2ccc(C)cc2)CC1 | 1.97 | -0.74
O=C(NCc1ccccc1)c1cccnc1Sc1ccccc1 | 1.18 | -0.28
C=C(C)Cn1c(CN(C)Cc2ccccc2)nc2c1c(=O)n(C)c(=O)n2C | 2.44 | -0.52
CCOc1ccc(NC(=O)N[C@@H](CCSC)C(=O)OC)cc1 | 0.18 | -0.12
CCOc1ccc(CN2CCC(Cc3ccccc3)CC2)cc1 | 0.4 | 0.27
CC(=O)c1c(C)[nH]c(C(=O)CSc2nnc(-c3ccccc3)o2)c1C | 1.1 | -2.31
CCc1cc(C(=O)c2ccccc2)c(N)s1 | 1.61 | 0.48
COc1cc(-c2nc(S(=O)(=O)c3ccccc3)c(N3CCOCC3)o2)cc(OC)c1OC | 0.75 | 0.94
CN(C)CCCNC(=O)c1cc(C(=O)c2ccccc2)c[nH]1 | 0.37 | -0.93
COc1ccc(C(=O)NC(C)c2ccc(-n3ccnc3)cc2)c(OC)c1 (configuration not stated) | 0.41 | 1.33
CCSc1nc(N)nc(-c2cccs2)c1C#N | 1.9 | -0.04
CCOC(=O)[C@@H]1[C@H]2COc3ccccc3[C@@H]2N2C(=O)N(c3ccccc3)C(=O)[C@@]12C | 0.05 | 0.02
CCOc1ccc(NC(=O)CN(C)S(=O)(=O)c2ccc(-c3ccc(=O)[nH]n3)s2)cc1 | 1.44 | 1.57
COc1ccc(NC(=O)CCNC(=O)c2ccccc2Cl)cc1OC | 0.16 | -1.02
CC1(C)N=C(c2ccc(Cl)cc2)C(=O)N1 | 0.72 | 0.01
COc1cc(/C(C)=N\NC(N)=S)cc(OC)c1OC | 0.52 | -1.07
Nc1nnc(SCC(=O)NC2CCCCC2)s1 | 0.06 | 0.01
CNC(=O)C(=O)Nc1nc(C23CC4CC(CC(C4)C2)C3)cs1 | 0.57 | -1.29
COc1ccccc1NCC(=O)NNCC(=O)Nc1ccc(F)c(Cl)c1 | 1.25 | -0.06
O=C(NC12CC3CC(CC(C3)C1)C2)c1c(Cl)cccc1Cl | 1.38 | -2.16
COc1cc(C(=O)NCC(=O)N/N=C(\C)Cc2ccccc2)cc(OC)c1OC | 1.2 | -0.01
CCn1c(=O)cc(OCC(=O)O)c2ccccc21 | 1.76 | 0.1
CCN=C1SC(CC(=O)NC(C)c2ccccc2)C(=O)N1CC (configuration not stated) | 0.52 | -0.15
CC[N+](CC)(CC)CC(=O)Nc1ccc(SC(F)F)cc1 | 0.96 | -0.06
Cc1cccc(OCCNc2cc(N3CCN(CCO)CC3)ccc2[N+](=O)[O-])c1 | 0.65 | -0.1
Cc1cc(C(=O)OCC(=O)NCc2ccc(Cl)cc2)c(C)o1 | 0.73 | -0.02
